KCNQ2 enhance: KCNQ2 (rat) channel potentiation; CHO-K1 KCNQ2, FluxOR thallium flux fluorescence; active compounds read high; O88943; B-score at 10 µM; actives 0.54% (n = 310,000);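 active means fluorescence ratio B-score at least 3 SD of library B-scores, with initial fluorescence B-score within 3 SD, cut at about 5.3 in these data; same plate scores as AID 2156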;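 further: B-score of peak minus minimum over baseline fluorescence ratio after K+ and Tl+ stimulus; positive B-score means potentiation of KCNQ2 with more thallium influx and brighter signal; only the inactives scoring about 0 or higher are listed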
Target sequence (O88943 whole entry, looked up): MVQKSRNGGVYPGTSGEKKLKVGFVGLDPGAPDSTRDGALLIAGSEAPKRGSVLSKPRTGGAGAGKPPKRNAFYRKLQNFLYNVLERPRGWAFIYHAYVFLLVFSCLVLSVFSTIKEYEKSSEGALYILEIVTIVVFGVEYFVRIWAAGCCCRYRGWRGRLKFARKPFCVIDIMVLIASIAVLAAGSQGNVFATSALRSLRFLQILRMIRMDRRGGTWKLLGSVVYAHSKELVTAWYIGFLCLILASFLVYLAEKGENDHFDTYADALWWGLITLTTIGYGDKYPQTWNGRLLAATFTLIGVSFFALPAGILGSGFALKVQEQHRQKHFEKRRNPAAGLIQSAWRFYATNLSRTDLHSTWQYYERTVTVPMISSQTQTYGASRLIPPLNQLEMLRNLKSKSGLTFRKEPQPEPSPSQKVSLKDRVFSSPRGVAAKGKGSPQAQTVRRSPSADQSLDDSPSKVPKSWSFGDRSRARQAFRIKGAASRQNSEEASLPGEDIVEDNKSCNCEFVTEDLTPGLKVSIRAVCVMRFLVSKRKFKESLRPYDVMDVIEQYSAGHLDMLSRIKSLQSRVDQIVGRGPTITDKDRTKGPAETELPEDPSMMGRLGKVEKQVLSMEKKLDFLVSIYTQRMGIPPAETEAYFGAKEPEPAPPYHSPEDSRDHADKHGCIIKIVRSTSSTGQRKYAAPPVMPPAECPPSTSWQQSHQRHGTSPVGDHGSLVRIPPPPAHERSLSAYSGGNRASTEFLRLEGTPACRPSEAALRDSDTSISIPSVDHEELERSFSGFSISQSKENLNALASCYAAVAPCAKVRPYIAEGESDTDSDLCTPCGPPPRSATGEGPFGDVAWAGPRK
KCNQ2 enhance baseline: recorded beside KCNQ2 enhance, whose call it bears; B-score; compound at 10 µM; measured here: initial fluorescence intensity artifact check;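 brightness before thallium and not channel activity; 0 = typical well and far values either way flag optical interference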
* marks the source's active call; other numbers are inactive results. This is a subset; count on the stated rates, not on these rows.

SMILES	KCNQ2 enhance	KCNQ2 enhance baseline
Cc1cc(C)cc(NC(=O)N2CCCN(c3ncccc3[N+](=O)[O-])CC2)c1	0.33	2.17
O=C(NCC1CCCO1)C1CCC(CNS(=O)(=O)c2ccccc2)CC1 (configuration not stated)	2.09	-1.14
CN(c1ccccc1)S(=O)(=O)c1ccc(Cl)c(C(=O)Nc2ccc(-c3nc4ccccc4[nH]3)cc2)c1	1.12	0.04
CC(C)C(=O)Nc1nnc(COc2ccc(Cl)cc2)s1	0.31	-0.03
CCC1=Nc2ccccc2NC2=C1C(=O)CCC2	0.43	-1.34
COc1ccc(-c2nc(=S)c3c(n2CCN2CCOCC2)CC(C)(C)OC3)cc1	0.34	-1.04
Cc1ccc(C)c(OCC(=O)Nc2c[nH]c(=O)[nH]c2=O)c1	0.14	2.12
C=CCn1c(CNC(=O)c2ccco2)nnc1SCC(=O)Nc1cccc(F)c1	2.38	0.5
O=C(O)CCC(=O)NCc1c(Cl)cccc1Sc1ccc(Cl)cc1	0.62	0.05
COc1ccc(-c2cn3cc([N+](=O)[O-])ccc3n2)cc1OC	0.55	0.54
CN(C)c1ccc(Nc2ccc([N+](=O)[O-])cn2)cc1	2.61	-0.83
COc1ccccc1C(=O)OCC(=O)NC(=O)NCc1ccccc1	0.01	0.51
CNC(=O)c1cc(S(=O)(=O)Nc2ccc3c(c2)OCO3)ccc1C	0.05	-0.09
O=c1cc(-c2ccccc2)[nH]c2ccccc12	1.65	0.25
Cc1ccc(S(=O)(=O)/N=C2\SC(CC(=O)Nc3ccc(F)cc3)C(=O)N2c2ccccc2)cc1 (configuration not stated)	1.33	-0.39
Cc1cc(NC(=O)c2ccco2)ccc1NC(=O)c1ccco1	1.2	0.38
CN(C)/C=C/C(=O)c1cc(F)cc(C(F)(F)F)c1	1.17	0.44
COc1ccc2c(c1)C(NC(=O)C(F)(F)F)CC2=O (configuration not stated)	0.14	0.04
NS(=O)(=O)c1cc(C2(O)NC(=O)c3ccccc32)ccc1Cl (configuration not stated)	1.05	0.65
Cn1cc(Cl)c(C(=O)N/N=C/c2ccc(OS(=O)(=O)c3ccccc3)cc2)n1	0.02	0.06
CC(O)[C@@H](NC(=O)C1CCC(CNC(=O)[C@H](Cc2ccccc2)NC(=O)OC(C)(C)C)CC1)C(=O)O (some centres not stated)	0.1	1.38
O=C(NCC1CCCN(Cc2cccc(OCCO)c2)C1)c1ccc(F)cc1 (configuration not stated)	0.48	0.04
Cc1ccc(SCC(=O)Nc2c(Br)cnn2C)cc1	2.27	-1.22
CCOc1ccc2nc(NC(=O)CSc3nc4c(c(=O)n(C)c(=O)n4C)n3C(C)C)sc2c1	0.05	0.17
CCOC(=O)c1c(-c2cccc([N+](=O)[O-])c2)csc1N	1.42	-1.53
CCCS(=O)(=O)NCCc1cc2c(C)ccc(C)c2[nH]c1=O	0.1	-0.66
CC1CC(C)CN(C(=O)COC(=O)CCc2nc3ccccc3c(=O)[nH]2)C1 (configuration not stated)	0.72	0.18
Cc1ccc(CNC(=O)CCC2CCCN(Cc3cccc4c3OCO4)C2)o1 (configuration not stated)	0.08	0.26
N#C/C(=C(/O)COc1ccccc1)c1nc2ccccc2s1	0.04	0.15
Clc1cccc(Cl)c1COc1ccncc1	1.28	-0.37
CCc1ccccc1-n1nnnc1SCC(=O)Nc1cc(C)on1	2.11	-0.14
COc1ccc(CNC(=O)c2ccc(S(=O)(=O)N3CCCC3)cc2)cc1OC	0.59	1.45
O=C(CN1CCN(Cc2ccccc2)C1=O)NCCCN1CCOCC1	0.55	2.78
CCOc1cc(N2CCCC2)ccc1[N+](=O)[O-]	0.22	0.11
Cc1cccc(N(CC(=O)NCc2ccc3c(c2)OCO3)C(=O)CCC(=O)Nc2ccccn2)c1	0.78	-0.67
COc1ccc(C2c3ccc(O)cc3Oc3ncn(CCN4CCOCC4)c(=N)c32)cc1 (configuration not stated)	1.72	0.79
O=C(O)c1cccc(-c2ccc(/C=N/n3cnnc3)o2)c1	0.24	-1.6
COC(=O)CN(c1nc(C)cc(OC)n1)S(=O)(=O)c1ccc(C)cc1	2.17	-0.24
O=[N+]([O-])c1cc(C(F)(F)F)ccc1NCCc1c[nH]c2ccc(O)cc12	0.71	0.98
COC(=O)/C=C1/SC(=NC(=O)c2ccc(F)cc2)NC1=O	1.25	0.43
Cc1ccc(C(=O)c2c3ccc(C(F)(F)F)cc3[n+]([O-])n2CCCN)cc1	0.64	1.49
Cc1nc2ncnn2c(C)c1CCC(=O)N1CCN(c2ccccn2)CC1	0.19	-1.47
Cc1nc2ncnn2c(N2CCCC(C(=O)Nc3ccccc3Br)C2)c1C (configuration not stated)	2.66	-2.12
CCOc1ccccc1C(=O)Nc1nnc(SCC(=O)Nc2cc(C)on2)s1	0.02	-0.25
CC(C)(C)c1ccc(NS(=O)(=O)c2ccc(N)cc2)cc1	0.58	0.33
Cc1ccccc1C(C(=O)NC1CCCCC1)N(C(=O)c1ccccn1)c1cccnc1 (configuration not stated)	1.33	-2.1
COc1cc2c(C(=O)NC3CCCCCC3)cn(C)c(=O)c2cc1OC	0.15	0.24
O=C(CSc1ncn[nH]1)NCCCc1ccccc1	0.13	0.37
Cc1cccc(-n2c(C)n[nH]c2=S)c1	0.31	0.13
OC(CNCc1ccco1)Cn1c2ccc(Br)cc2c2cc(Br)ccc21 (configuration not stated)	0.53	-0.02
COc1ccc(CNC(=O)C2CCN(S(=O)(=O)c3ccc(-c4nn[nH]n4)cc3)CC2)cc1	1.29	0.1
CCOC(=O)c1ccc(NC(=O)c2cc(C)nc3ccccc23)cc1	0.32	0
Cc1snc(SCC(=O)c2ccc(F)cc2)c1C#N	0.09	-2.01
CC(=O)c1c(C)[nH]c(C(=O)CN2C(=O)NC(CCc3ccccc3)C2=O)c1C (configuration not stated)	0.02	-0.5
Cn1cccc1/C=N/NC(=O)c1sc2cc(Cl)ccc2c1Cl	0.86	0.06
COc1ccc(C(=O)NNC(=O)c2cc(C)[nH]n2)cc1	0.52	0.23
COc1ccc(NS(=O)(=O)c2ccc(SC)cc2)c(OC)c1	0.69	0.37
OCCC1CN(Cc2cccn2-c2nccs2)CCN1Cc1ccccc1 (configuration not stated)	1.31	0.14
CCOC(=O)N1CCN(C(=O)CSc2nnc(Cc3cccn3C)n2CCc2ccccc2)CC1	0.21	-3.06
COc1cc(OC)c(NC(=O)c2ccoc2C)cc1Cl	0.81	1.89

Four entries out of the list, arranged by formula weight, ascending.
SMILES	KCNQ2 enhance	KCNQ2 enhance baseline
Cc1nc2ncnn2c(C)c1CCC(=O)N1CCN(c2ccccn2)CC1	0.19	-1.47
Cc1ccc(C(=O)c2c3ccc(C(F)(F)F)cc3[n+]([O-])n2CCCN)cc1	0.64	1.49
OCCC1CN(Cc2cccn2-c2nccs2)CCN1Cc1ccccc1 (configuration not stated)	1.31	0.14
CCOC(=O)N1CCN(C(=O)CSc2nnc(Cc3cccn3C)n2CCc2ccccc2)CC1	0.21	-3.06

More records.
SMILES	KCNQ2 enhance	KCNQ2 enhance baseline
c1ccc(-c2nnc(SCc3nnc(-c4cccs4)o3)o2)cc1	0.02	1.12
COc1ccc(N2CCN(C(=O)CNC(=O)c3nn(-c4ccc(OC)cc4)c(=O)c4ccccc34)CC2)cc1	1.86	-0.45
COc1ccc(C(=O)NNC(=O)c2cccc(F)c2)cc1	1.04	2.09
Cc1cc(C)cc(NC(=O)C2CCCN(S(=O)(=O)c3ccc4[nH]c(=O)ccc4c3)C2)c1 (configuration not stated)	1.69	-1.97
CC(C)CN(C(=O)COC(=O)c1ccc(Br)o1)c1c(N)n(Cc2ccccc2)c(=O)[nH]c1=O	1.63	0.8
Cc1cccc(CSc2ccc3nnc(-c4ccccn4)n3n2)c1	2.86	1.05
CN(C)S(=O)(=O)c1cc(NC(=O)COC(=O)/C=C/c2ccco2)ccc1Cl	0.65	0.15
CC1CC(NC(=O)/C=C/C(=O)O)CC(C)(C)C1 (configuration not stated)	0.09	0.36
Cc1cccc(C(=O)NNC2=C(C(=O)C(F)(F)F)CCC2)c1O	6.57*	-2.52*
CCCCCC(=O)N/N=C/c1cccs1	2.24	1.07
O=C(O)c1ccc(N/C(=N\S(=O)(=O)c2ccc(Cl)cc2)c2ccccc2)cc1	0.12	-3.16
CCOC(=O)c1ccc(CSc2nnc(-c3ccncc3)n2N)cc1	0.68	2.16
CCSc1nnc(NC(=O)CSc2nncc(=O)n2N)s1	1.04	-0.16
O=C(CN1CCN(C(=O)c2ccco2)CC1)Nc1ccc(Br)cc1	0.12	0.25
Cc1ccc(C(=O)Cn2cnc3ccccc3c2=O)cc1	1.03	-0.26
CC(=O)C1CCN(Cc2ccccc2)CC1	0.37	0.77
CC(C)C(OC(=O)c1cc2c(s1)CCCCC2)C(=O)NC(N)=O (configuration not stated)	0.01	0.69
CCOC(=O)c1ccccc1NC(=O)COC(=O)C(CC(C)C)NC(N)=O (configuration not stated)	1.35	-0.14
CCOc1ccc(N(CC(=O)NC2CCCC2)C(=O)CCC(=O)Nc2nc(C)cs2)cc1	0.01	-1.99
COc1ccc(NC(=O)c2ccccc2NC(=O)CSc2ccc(C)cc2)cc1	0.86	1.2
C=C(C)Cn1c(C(C)NC(=O)CCC)nc2ccccc21 (configuration not stated)	1.2	-0.93
FC(F)(F)c1ccc(Cl)c(N/N=C/c2ccc(N3CCOCC3)s2)c1	0.3	1.82
CC(=O)Nc1cccc(-c2csc(Nc3ccc(Cl)cn3)n2)c1	1.95	-0.81
O=C(CCS(=O)(=O)c1ccccc1)Nc1ccc(-c2nc3ccccc3s2)cc1	0.58	-1.95
O=C(Oc1ccc(Oc2ccccc2)cc1)N1CCC(O)CC1	1.6	1.27
Cc1ccccc1CN1C[C@@H]2C[C@@H](c3cn[nH]c3-c3ccc(F)cc3)N3CCC[C@@]23C1=O	1.01	-0.75
CCCCCNCc1ccc(Br)cc1	1.17	-0.12
NC(=O)C(=O)N/N=C1\CCc2ccccc21	0.04	-1.42
COc1ccc(C(=O)Nc2cccc3c2CCCC3)c(OC)c1	0.11	-2.84
O=C(Cn1nnc(-c2cccc(C(F)(F)F)c2)n1)N1CCCCCC1	11.7*	-1.16*
COc1ccc(CCC(=O)Nc2ccc(-c3noc(-c4ccc(OC)c(OC)c4)n3)cc2)cc1	2.02	-0.48
C[C@H](N)c1nnc(SCC(=O)c2ccc(Cl)cc2)o1	0.24	-1.08
COc1ccc(S(=O)(=O)CCC(=O)N2CCN(c3ccccc3F)CC2)cc1	0.17	-1.68
COc1ccc(C(C(=O)NC2CCCCC2)N(C(=O)c2sc(C)nc2C)c2ccccc2)cc1 (configuration not stated)	0.2	-0.25
Cc1ccc(-c2cc(C(F)F)nc(NCc3cccs3)n2)cc1	0.78	0.76
Cc1ccc2c(n1)CC(C)(C)CC2=O	0.43	0.22
O=S(=O)(NCC(Nc1ccccc1)c1ccccc1)c1ccc(Cl)cc1 (configuration not stated)	0.25	-0.01
CC(C)C(=O)Nc1ccc(NC(=S)NC(=O)c2ccccc2F)cc1	0.02	-0.88
Cc1cc(=O)[nH]c2ccc(S(=O)(=O)Nc3ccccc3)cc12	0.29	-0.08
CC(C)NC(=O)CSc1nnc(C2CC2)n1-c1ccccc1	0.24	0.9

Part of the list above, set out differently:
compound: CC(C)CN(C(=O)COC(=O)c1ccc(Br)o1)c1c(N)n(Cc2ccccc2)c(=O)[nH]c1=O
  KCNQ2 enhance: 1.63	KCNQ2 enhance baseline: 0.8

compound: CCOC(=O)N1CCN(C(=O)CSc2nnc(Cc3cccn3C)n2CCc2ccccc2)CC1
  KCNQ2 enhance: 0.21	KCNQ2 enhance baseline: -3.06

compound: COc1ccc2c(c1)C(NC(=O)C(F)(F)F)CC2=O (configuration not stated)
  KCNQ2 enhance: 0.14	KCNQ2 enhance baseline: 0.04

compound: Cc1cc(NC(=O)c2ccco2)ccc1NC(=O)c1ccco1
  KCNQ2 enhance: 1.2	KCNQ2 enhance baseline: 0.38

(next part)
SMILES	KCNQ2 enhance	KCNQ2 enhance baseline
O=C(NCc1ccc2c(c1)OCO2)Nc1cccc(Cl)c1	20.9*	0.61*
Cc1cc(C(=O)COC(=O)c2csc3c2CCCC3)c(C)n1C	1.26	-1.35
c1ccc(-c2csc(Nc3cccnc3)n2)cc1	1.03	0.15
CC1(CCc2ccccc2)NC(=O)N(Cc2cc([N+](=O)[O-])cc3c2OCOC3)C1=O (configuration not stated)	1.65	0.11
CCOc1ccccc1CN1CCN(S(=O)(=O)CC)CC1	0.7	0.3
CCOC(=O)N1CCN(c2nc3ccccn3c(=O)c2C=O)CC1	0.24	1.16
N#Cc1cccc(C(c2nnnn2CCc2ccccc2)N2CCN(C3CCCCC3)CC2)c1 (configuration not stated)	0.05	-0.46
O=C(CSC1=N/C(=C/c2ccco2)C(=O)N1c1ccc(OC(F)F)cc1)NC1CCS(=O)(=O)C1 (configuration not stated)	0.6	0.57
Cc1sc2nc(C(C)C)nc(SCC(=O)N3c4ccccc4CC3C)c2c1C (configuration not stated)	2.37	-0.01
CCOc1cccc(C2CC(=O)Nc3cc(OC)c(OC)cc32)c1 (configuration not stated)	0.02	0.04
CC(C)=CCC/C(C)=C/Cc1c(O)ccc(C(=O)/C=C/c2ccc(O)cc2)c1O	0.58	-0.07
NC(=O)c1cc(NC(=O)c2cc(Br)c(Br)s2)cc(C(N)=O)c1	0.18	2.36
O=C(Nc1ccc(N2CCN(Cc3ccccc3F)CC2)cc1)c1ccc([N+](=O)[O-])o1	0.01	0.39
CCOc1cc(/C=C2/C(=O)N(c3ccccc3)N=C2C)ccc1OC(=O)c1cccs1	0.8	-0.13
CCCCCCSc1nc(O)c(C2OC(=O)c3c2ccc(OC)c3OC)c(=O)n1CC (configuration not stated)	3.65	0.4

A different layout for part of the listing above:
Under each structure: KCNQ2 enhance | KCNQ2 enhance baseline
c1ccc(-c2csc(Nc3cccnc3)n2)cc1
  1.03 | 0.15
CC1(CCc2ccccc2)NC(=O)N(Cc2cc([N+](=O)[O-])cc3c2OCOC3)C1=O (configuration not stated)
  1.65 | 0.11
CCOc1ccccc1CN1CCN(S(=O)(=O)CC)CC1
  0.7 | 0.3

High-throughput results: PubChem BioAssay, Johns Hopkins Ion Channel Center
